Compound activity (PubChem)
VDR inhibitor: vitamin D3 receptor (human) inhibition; VDR-SRC2-3 peptide fluorescence polarization, 2 h; P11473; 400,000 compounds, 0.93% hits; AID 504847; Potency, µM, for the others: max response, negative = inhibition, usual class: inhibitors; active means well fitted inhibition curve with a large enough effect; inconclusive means small, poorly fitted or top-dose-only effect, or another doubt; inactive means no such curve, though single readings can be large or run the other way; further: series mostly up to about 120 µM
Target sequence (P11473 whole entry, looked up): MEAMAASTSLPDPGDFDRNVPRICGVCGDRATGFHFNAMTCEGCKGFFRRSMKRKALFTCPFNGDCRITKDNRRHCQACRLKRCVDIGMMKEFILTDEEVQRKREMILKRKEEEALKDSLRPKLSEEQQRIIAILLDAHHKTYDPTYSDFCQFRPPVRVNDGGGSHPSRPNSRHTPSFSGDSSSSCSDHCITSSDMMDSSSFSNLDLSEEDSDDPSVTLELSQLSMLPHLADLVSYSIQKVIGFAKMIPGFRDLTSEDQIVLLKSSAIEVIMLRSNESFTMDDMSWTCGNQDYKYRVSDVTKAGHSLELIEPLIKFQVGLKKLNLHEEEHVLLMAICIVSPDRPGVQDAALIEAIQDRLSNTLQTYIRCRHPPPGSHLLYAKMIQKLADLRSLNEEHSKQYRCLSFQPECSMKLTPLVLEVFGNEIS
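Inhibition of the VDR/SRC2-3 peptide interaction is quantified by fluorescence polarization. Compounds (23 nl, pintool) incubate with the reagents for 2 hours at ambient room temperature.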
Starred values were filed as active, the others as inactive; ? = inconclusive. On the % scale 0 is the no-effect control and ±100 the full control effect; potency means the concentration at half of the fitted maximal effect. Not all compounds are listed, so the mix of outcomes need not match the whole.

VDR inhibitor,canonical_smiles
-3%,CC(=O)C1=C(O)C(=O)N(Cc2ccccc2)C1c1ccc(F)cc1 (configuration not stated)
-28%,O=C(O)c1cc(Br)ccc1NN=C1CCCCC1
?,Cc1ccc(NNS(=O)(=O)c2ccc(C)cc2)cc1
45µM*,Cc1cnc(CNc2cc(-c3ccoc3)ncn2)cn1
-16%,O=C(CCCCCN1C(=O)CCC1=O)Nc1ccc2c(c1)OCO2
15%,O=c1[nH]c(SCCN2CCOCC2)nc(O)c1-c1ccccc1
9%,O=C(OCc1cc2ccccc2[nH]c1=O)c1ccccc1
10%,Cc1cccc(Nc2nnc(SCC(=O)c3ccc(O)cc3O)s2)c1
-5%,O=C(CCSc1ccccc1)NCCSCc1ccccc1
-7%,O=C(Cn1nnc2ccccc21)c1ccc(Cl)cc1
-6%,O=C(Nc1cc(Cl)ccc1O)C1CCCO1 (configuration not stated)
89µM*,Cc1ccc(C(=O)c2cc([N+](=O)[O-])ccc2N2CC(C)OC(C)C2)cc1 (configuration not stated)
3%,Cc1ccc(S(=O)(=O)N(C)C)cc1NC(=O)COC(=O)C1CCN(S(=O)(=O)c2cccs2)CC1
-17%,CCCCNS(=O)(=O)c1ccc(NC(=O)C2CCCO2)cc1 (configuration not stated)
7%,Cc1ccc(C(=O)OCN2C(=O)c3ccccc3C2=O)o1

Entries shown so far containing a halogen (four):
VDR inhibitor,canonical_smiles
-3%,CC(=O)C1=C(O)C(=O)N(Cc2ccccc2)C1c1ccc(F)cc1 (configuration not stated)
-28%,O=C(O)c1cc(Br)ccc1NN=C1CCCCC1
-7%,O=C(Cn1nnc2ccccc21)c1ccc(Cl)cc1
-6%,O=C(Nc1cc(Cl)ccc1O)C1CCCO1 (configuration not stated)

The results go on:
VDR inhibitor,canonical_smiles
-6%,CCCC(=O)Nc1nc2ccc(OC)cc2s1
12%,Cc1ccc(NC(=O)CN(C)C(=O)c2ccc(S(=O)(=O)N(C)c3ccccc3)cc2)cc1
0%,O=C(Nc1ccc2c(c1)OCO2)c1cc(-c2cccnc2)nc2ccccc12
-12%,CCOC(=O)c1cc2c(=O)n3ccccc3nc2n(CC(C)C)c1=NC(=O)c1ccco1
11%,CCOc1ccc(C(=O)OCC(=O)NCCNC(=O)COC(=O)c2ccc(OCC)cc2)cc1
8%,COc1ccc(N2CCN(C(=O)Nc3ccccc3C)CC2)cc1
0%,CC(C)(C)c1ccc(CN2C3=NCCCN3c3ccccc32)cc1
14%,CC(C)C1Oc2ccccc2N(CC(=O)NCCCN2C(C)CCCC2C)C1=O (configuration not stated)
7%,CCOc1cc(C2c3c(-c4ccccc4O)n[nH]c3C(=O)N2Cc2cccnc2)ccc1O (configuration not stated)
-5%,COc1ccnc(CSC(N)=Nc2ccccc2C(F)(F)F)c1
-1%,CCN(C(=O)CSc1nnc(-c2ccco2)n1Cc1ccccc1)C1CCS(=O)(=O)C1 (configuration not stated)
4%,Cc1cccc(-n2ccnc2SCC(=O)Nc2cccc3ccccc23)c1
-4%,O=C1CCCC/C1=C/Nc1ccc(S(=O)(=O)Nc2ncccn2)cc1
-4%,COc1nccc(C(F)(F)F)c1C(=O)NC(=O)Nc1c(C)cccc1C
0%,Cc1cc(Cl)ccc1OCCCC(=O)N1CCCCC1
?,CC1=C(C(=O)OCc2ccccc2)C(c2ccccc2Br)NC(=O)N1 (configuration not stated)
-5%,O=C(CCCC(=O)N1CCCc2ccccc21)N1CCCc2ccccc21
3%,CCOc1ccc(C(CC(=O)O)NC(=O)c2ccco2)cc1OC (configuration not stated)
3%,COc1cccc(N2CCN(Cc3nnc(-c4ccc5c(c4)OCO5)o3)CC2)c1
-4%,CCN1CCc2nc(NC(=O)c3ccccc3)sc2C1
-11%,COC(=O)CC1C(=O)NCCN1C(=S)NC(=O)C(c1ccccc1)c1ccccc1 (configuration not stated)
-20%,O=c1[nH]cnc2sc3c(c12)CCCCC3
5%,O=C(/C=C/c1ccc2c(c1)OCCO2)N1CCN(c2ccc(F)cc2)CC1
-1%,O=C(Nc1ccc(NC(=O)c2ccco2)nc1)c1cccnc1
-12%,Cn1c(=O)c2cnc(-c3ccc(C(F)(F)F)cc3)nc2n(C)c1=O
3%,CCOc1cc(C2c3c(oc4cc(C)c(Cl)cc4c3=O)C(=O)N2Cc2ccco2)ccc1O (configuration not stated)
-8%,Cc1ccc(C)c(NC(CC(=O)c2ccccc2)C(=O)OCC(=O)c2cccs2)c1 (configuration not stated)
4%,Cc1ccc2c(=O)cc(C(=O)Nc3nc4ccc(Cl)cc4s3)oc2c1
0%,CN(CCNC(=O)CN1C(=O)CSc2ccc(S(=O)(=O)N3CCCC3)cc21)Cc1ccccc1
-8%,Cc1cc(C)c2c(=O)cc(C(=O)Nc3sc4c(c3C(=O)NCc3ccccc3)CCCC4)oc2c1
-16%,CCc1noc(C)c1C(=O)OCC(=O)Nc1cccc(C)c1
?,CCOC(=O)c1csc(NNC=O)n1
7%,CCOC(=O)C1CCCN(Cc2cn3c(-c4ccc(Br)cc4)nnc3s2)C1 (configuration not stated)
-12%,O=C(CSc1nnc(CNc2ccc(Cl)cc2)o1)Nc1nc2c(s1)CCCC2
5%,COc1ccc(NC(=O)CN2CCN(C3CCCCC3)C(=O)C2=O)cc1
-18%,CN(C)C1=NCCN1CC1CCCCCC1
-23%,C/C=C(/C)C(=O)O[C@@H]1[C@H](OC(C)=O)c2c(ccc3ccc(=O)oc23)OC1(C)C
-6%,Cc1ccsc1/C=N/NC(=O)c1c[nH]c2ccccc12
0%,CCCNC(=O)CN(C)S(=O)(=O)c1c(C)cc(C)cc1C
-20%,Cc1ccc(NC(=O)NCCN2CCCCC2)cc1
-11%,C=CCc1cc2c(oc(=O)c3ccccc32)c(C)c1O
-17%,CCN(CC)c1ccc(/C=N/NC(=O)c2c(Cl)cnn2C)c(O)c1
2%,CSc1nc2ccsc2c(=O)n1-c1ccccc1
-8%,OCCNCCOc1ccc(Cl)c(Cl)c1
-1%,CC(Sc1nnc(-c2ccc(Cl)cc2)n1N)C(=O)NCC1CCCO1 (configuration not stated)

As entered above.
Result of OCCNCCOc1ccc(Cl)c(Cl)c1 under VDR inhibitor: -8%
Result of Cc1ccsc1/C=N/NC(=O)c1c[nH]c2ccccc12 under VDR inhibitor: -6%

Later entries.
VDR inhibitor,canonical_smiles
13%,COc1ccc(CN2CC(C(=O)NCCN3CCN(c4ccccc4F)CC3)CC2=O)cc1 (configuration not stated)
7%,COc1ccc(OC)c(C2CC(c3c(-c4ccccc4)c4cc(Cl)ccc4[nH]c3=O)=NN2S(C)(=O)=O)c1 (configuration not stated)
-1%,Cc1cccc(C(=O)NCC(=O)OCC(=O)N2CC3(C)CC2CC(C)(C)C3)c1 (configuration not stated)
?,CC(C)(C)c1cc[n+](-c2[nH]c(=O)sc2/C=N/NC([S-])=Nc2ccccc2)cc1
-7%,CCCNC(=O)CN(C)CC(=O)Nc1ccccc1C#N
-16%,COc1ccc(NC(=O)NC2CCCc3ccccc32)c(OC)c1 (configuration not stated)
-3%,CC12CN3CC(C)(CN(C1)C3c1cc3ccccc3[nH]1)C2=O (configuration not stated)
1%,CC(C)(C)OC(=O)N1CCN(C(=O)[C@H](Cc2ccc(O)cc2)n2cc(CCO)nn2)CC1
0%,O=C(Nc1ccc(Cl)c(-c2nc3ccccc3o2)c1)c1ccc(-c2cccc([N+](=O)[O-])c2)o1
-2%,O=C(c1ccc([N+](=O)[O-])cc1)N1C=CC(C(F)(F)F)=NCC1
-11%,O=C(COc1ccc(Cl)cc1Cl)Nc1ccc2nc3n(c(=O)c2c1)CCCC3
-6%,CCOc1ccccc1CN1CCC(n2nccc2NC(=O)CCCc2ccccc2)CC1
-3%,COc1ccc(C(C)=O)cc1CS(=O)(=O)CC(=O)O
-7%,O=C(c1ccccc1[N+](=O)[O-])N1CCN(Cc2ccc3c(c2)OCO3)CC1
7%,COc1cccc2sc(NC(=O)c3ccc(S(=O)(=O)N4CCC(C)CC4)cc3)nc12
5%,O=S1(=O)CCN(Cc2ccc(Cl)cc2)CC1
-5%,COc1cccc(Cn2c(=O)c(-c3cc(F)cc(F)c3)nc3cnc(N(C)C)nc32)c1
-7%,COc1ccccc1NC(=O)NC1(C(=O)N2CCCCC2)CCCCC1
4%,CCc1ccc(Nc2ncc3c(n2)CC(c2ccc(OC)cc2)CC3=O)cc1 (configuration not stated)
-6%,CCC1(C)Cc2c(sc3nnn(CC(=O)Nc4ccccc4)c(=O)c23)CO1 (configuration not stated)
-20%,CCOc1cc(NC(=S)NCC2CCCO2)c(OCC)cc1NC(=O)c1ccc(OC)cc1 (configuration not stated)
-1%,CCOC(=O)C1CCN(C(=O)c2ccc3c(c2)OCCO3)CC1
0%,Cc1ccc(NC(=O)c2cnc(SCC(=O)N3CCCc4ccccc43)n(C)c2=O)cc1C
24%,CCCOC(=O)C1=C(C)NC2=C(C(=O)CCC2)C1c1cc(OC)ccc1OC (configuration not stated)
-3%,COc1cc(/C=C/C(=O)N2CCCc3ccccc32)cc(OC)c1OC
1%,COc1ccccc1-c1nnc(N(C)C(=O)C2CCCO2)s1 (configuration not stated)
-20%,O=C(CCNC(=O)c1ccc([N+](=O)[O-])cc1)NC1CCCCC1
4%,CCC(C(=O)NCc1ccc2c(c1)CCN2C(=O)c1ccc(F)cc1)c1ccccc1 (configuration not stated)
-4%,CCOc1cc(C(=O)Nc2ccncc2)cc(OCC)c1OCC
-7%,COCCCC1CCN(C(=O)c2cc(COc3cc(C)ccc3C)on2)CC1
2%,CCCCOC(=O)c1c(C)oc2c1cc(NS(=O)(=O)c1cc(OC)ccc1OC)c1ccccc12
-2%,CCC(C(=O)NC1CCCC1)N(C(=O)Cn1nnc(-c2ccc(C)o2)n1)c1cnc2ccccc2c1 (configuration not stated)
-1%,Cc1ccc(NCc2nc3ccccc3n2C)cc1
-30%,Cc1cccc(NC(=O)c2cc(NC(=O)C3CCCCC3C(=O)O)ccc2N2CCOCC2)c1 (configuration not stated)
-1%,Cn1c(=O)[nH]c(=O)c2c1nc(NN)n2CCOc1ccccc1
-6%,COC(=O)c1ccc(NS(=O)(=O)N(C)C)cc1
-7%,CC(=O)c1ccc(N(C(=O)Cn2nnc(-c3ccccc3)n2)C(C(=O)NC2CCCCC2)c2ccccn2)cc1 (configuration not stated)
3%,Cn1cnnc1SCC(C)(C)NS(=O)(=O)c1ccc(Cl)cc1
-29%,COc1cc(/C=C(\C#N)C(=O)Nc2cccc3ncccc23)cc(OC)c1OC
-13%,CCC(C)Cn1c(COc2ccc(OC)cc2)nc2ccccc21 (configuration not stated)
-4%,Cc1cccc(-n2c(SCC(=O)NCc3ccco3)nnc2-c2ccco2)c1
16%,COc1ccccc1N1CCN(C(=O)c2cc(=O)c3c(C)cc(C)cc3o2)CC1
13%,CCOC(=O)c1csc(NC(=O)CCSc2ccccc2)n1
26%,Cc1nonc1C(=O)N/N=C/c1cc2c(cc1Br)OCO2
2%,C=CCOC(=O)c1cn(CC)c2nc(C)ccc2c1=O

An excerpt from above in order of formula weight, low to high:
VDR inhibitor,canonical_smiles
-1%,Cc1ccc(NCc2nc3ccccc3n2C)cc1
-6%,COC(=O)c1ccc(NS(=O)(=O)N(C)C)cc1
13%,CCOC(=O)c1csc(NC(=O)CCSc2ccccc2)n1
26%,Cc1nonc1C(=O)N/N=C/c1cc2c(cc1Br)OCO2
3%,Cn1cnnc1SCC(C)(C)NS(=O)(=O)c1ccc(Cl)cc1
-2%,CCC(C(=O)NC1CCCC1)N(C(=O)Cn1nnc(-c2ccc(C)o2)n1)c1cnc2ccccc2c1 (configuration not stated)
2%,CCCCOC(=O)c1c(C)oc2c1cc(NS(=O)(=O)c1cc(OC)ccc1OC)c1ccccc12

The results go on:
VDR inhibitor,canonical_smiles
-19%,O=C(Nc1ccc(S(=O)(=O)Nc2ncccn2)cc1)C1CC(=O)N(c2ccc(Cl)cc2)C1 (configuration not stated)
-11%,c1ccc(C2CNCCc3ccccc32)cc1 (configuration not stated)
0%,COc1cc(C=NNC(=O)c2ccc(NS(=O)(=O)c3cccs3)cc2)cc(Br)c1O
20%,O=C(NCCc1c[nH]c2ccccc12)c1ccc(F)cc1F
-2%,CC(=O)Nc1ccccc1Sc1ccccc1
-20%,O=C(NCCc1ccccc1)/C(=N\O)c1ccccc1
-8%,CCn1c(=O)cc(SCC(=O)NCc2ccc(C)o2)c2ccccc21
18%,O=C(/C=C/c1ccccc1[N+](=O)[O-])N1CCN(c2ccccc2F)CC1
-8%,CC1=CC(c2ccccc2)n2nnnc2N1 (configuration not stated)
0%,COc1cc2ccccc2cc1C(=O)N/N=C/c1ccc2c(c1)OCO2
3%,CCC1=NN(C(=O)CCc2ccccc2)C(O)(C(F)(F)F)C1 (configuration not stated)
-3%,CCOC(=O)C1=C(C)Nc2ccccc2N/C1=N\S(=O)(=O)c1cccc(Cl)c1
0%,O=c1c2c(nc3c(-c4ccc(Cl)cc4)c[nH]n13)CCCC2
-16%,CN(C)S(=O)(=O)c1ccc(Cl)c(NC(=O)COC(=O)CCSc2ccccc2)c1
-9%,CCCCC/C=C\C/C=C\CCCCCCCCCC(=O)NC(C)C(=O)O (configuration not stated)
-7%,CC(C)c1ccc(NC(=O)CNC(=O)Cn2cnc3ccccc3c2=O)cc1

4 compounds already listed, ordered by their value in VDR inhibitor, highest first.
SMILES | VDR inhibitor
O=C(NCCc1c[nH]c2ccccc12)c1ccc(F)cc1F | 20%
O=C(/C=C/c1ccccc1[N+](=O)[O-])N1CCN(c2ccccc2F)CC1 | 18%
CCOC(=O)C1=C(C)Nc2ccccc2N/C1=N\S(=O)(=O)c1cccc(Cl)c1 | -3%
CCCCC/C=C\C/C=C\CCCCCCCCCC(=O)NC(C)C(=O)O (configuration not stated) | -9%
